HCMV UL50-53 inh: disrupts HCMV UL50-UL53 complex binding; HTRF UL50-UL53 interaction, normalized percent inhibition; inhibition, % (concentration not given with the values); hit rate 0.15% among 190,000; AID 1918969;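 active = both replicates at 50% or more, plus weaker picks with an unusually low signal ratio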;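 note: stock transfer was 100 nL into about 20 µL; 0% = negative control wells and 100% = wells with untagged competitor protein; inactives centre near -12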
Numbers without * were called inactive; & = joins results of further samples.

SMILES	HCMV UL50-53 inh
N#CC1=C(SCC(N)=O)NC(O)(C(F)(F)F)C(C(=O)c2cccs2)C1c1ccccc1Cl (stereo not drawn)	0
CC(C)c1ccc(S(=O)(=O)c2cc3ccccc3oc2=O)cc1	1
CC(NC(=O)c1cc2ccccc2oc1=O)c1ccccc1 (stereo not drawn)	-1
NCCC(O)C(=O)NC1CC(N)C(OC2OC(CN)C(O)C(O)C2O)C(O)C1OC1OC(CO)C(O)C(N)C1O (stereo not drawn)	-4
CC(=O)Nc1sc2c(c1C(c1ccccn1)N1CCN(CCO)CC1)CCCC2 (stereo not drawn)	6&-5
CC(=O)Nc1ccncc1NC(C)=O	8
Cn1nnnc1SCC1=C(C(=O)O)N2C(=O)[C@@H](NC(=O)[C@H](O)c3ccccc3)[C@H]2SC1	-24
Cc1c(OCC(N)=O)ccc2c3c(c(=O)oc12)CCCC3	8
CCOc1ccc2c(c1)C(C)=CC(C)(C)N2	-20
Cc1ccc(-n2nc3c(c2NC(=O)CCC2CCCC2)CS(=O)C3)cc1 (stereo not drawn)	-14
COc1ccc2c(c1OC)C(=O)OC2Nc1ccccn1 (stereo not drawn)	-16
O=C(CC(SCc1ccco1)c1ccc(F)cc1)c1ccco1 (stereo not drawn)	-1
Cc1ccc(-c2ncnc3scc(C)c23)c2cccnc12	-29&-29
c1ccc2c(NCCCCCCCNc3c4c(nc5ccccc35)CCCC4)c3c(nc2c1)CCCC3	-38&-38
CCCCC(F)(F)C(=O)CCC1C(O)CC(=O)C1CCCCCCC(=O)O (stereo not drawn)	-25
COc1ccc(CN=C2SCC(=O)N2c2ccccc2)cc1Cl	-2
Cc1cc(C(=O)O)sc1C(N)C(=O)O (stereo not drawn)	-3
C#C[C@]1(O)CC[C@H]2[C@@H]3CCC4=C(CCC(=O)C4)[C@H]3CC[C@@]21C	-17
Cc1nn(C)cc1-c1ccnc(NCc2nc(-c3ccccc3)no2)n1	-22&-22
CN(C)CCCNC(=O)[C@@H]1C[C@H](CN2CCOCC2)CN(Cc2ccc3ccccc3c2)C1	-8
O=c1c(OC2OC(CO)C(O)C(O)C2O)c(-c2ccc(O)c(O)c2)oc2cc(O)cc(O)c12 (stereo not drawn)	-190&-115
Cn1cc(C(=O)N2CCc3[nH]nc(-c4ccccc4F)c3C2)c2ccccc21	-11
COC(=O)C1=C(C)NC(SCC(=O)Nc2ccccc2)=C(C#N)C1c1ccccc1F (stereo not drawn)	-8
COc1ccccc1/C=C(\C#N)c1ccc(-n2cccc2)cc1	-4
COc1ccc(Nc2nn3c(=O)c4ccccc4nc3s2)cc1	-9
Next section.
SMILES	HCMV UL50-53 inh
N#C/C(=C(\O)c1ccc(C#N)cc1)c1nc2ccccc2s1	-39
CCC(CC)C(CC(=O)O)N1Cc2ccccc2C1=O (stereo not drawn)	4
NC(Cc1cc(I)c(Oc2cc(I)c(O)c(I)c2)c(I)c1)C(=O)O (stereo not drawn)	19
COc1cc2ncc(-c3ccccc3)nc2cc1OC	-42&-81&-55
O=c1c(-c2cc3ccccc3o2)coc2cc(O)ccc12	0&8
OCCCc1nc2ccccc2n1Cc1ccc(Cl)cc1	0
ONc1cccnc1-n1nc(C(F)(F)F)cc1C(F)(F)F	-22
c1ccc(-c2cnc(-c3ccccc3)o2)cc1	-8
COc1ccccc1N(C)S(=O)(=O)c1ccc(Cl)cc1	-6
c1ccc2c(c1)nc(-c1ccncc1)n1nnnc21	-28
Cn1ccc2cc(NC(=O)Nc3cccnc3)ccc21	27
CN(C)C(CC(=O)Nc1ccc(O)cc1)C(=O)O (stereo not drawn)	-1
FC(F)(F)Oc1ccc(N=Cc2c(Cl)nc3sccn23)cc1	1
CCC(C)Oc1cc(-c2ccnc(Nc3cccc(Cl)c3)n2)ccn1 (stereo not drawn)	-14
CCc1cc(CC)c(/C=N/O)c(CC)c1/C=N/O	-12
Cc1nn(C)c(Cl)c1C(=O)NCC(=O)O	20
CCOC(=O)c1sc2nc(C)c(C)c(C)c2c1N	-13
O=c1c(O)c(-c2ccc(O)c(O)c2)oc2cc(O)ccc12	-69&-87
Cc1ccc(NC(=O)NCCSCc2ccc(CN(C)C)o2)cc1Cl	22
Cc1cc(N2CCCN(C(=O)Nc3nncs3)CC2)ccn1	-6
COc1ccc(/C=c2/sc3nc4ccccc4n3c2=O)cc1	9
COc1cc(S(C)=O)ccc1-c1nc2ncccc2[nH]1 (stereo not drawn)	8
O=Nc1cc(CN2CCCCC2)c(O)c2ncccc12	30
C=CCc1cc(C)ccc1OCC(O)Cn1cnc2ccccc21 (stereo not drawn)	-6
Cc1ccc([N+](=O)[O-])cc1S(=O)(=O)N(C)/N=C/c1cnc2ccc(Br)cn12	-48
The list continues:
SMILES	HCMV UL50-53 inh
COc1ccc2cc(CCNC(=O)c3cccc(C(F)(F)F)c3)c(=O)[nH]c2c1	-19
Cc1ccc(S(=O)(=O)c2ccc([N+](=O)[O-])o2)cc1	-10
COC1OC2O[C@@]3(C)CCC4C(C)CCC(C1C)[C@@]24OO3 (stereo partly drawn)	-59
COC(=O)CN1CCN(c2ncnc3sccc23)C(C)C1=O (stereo not drawn)	40&40
O=S(=O)(O)Oc1ccc(C(c2ccc(OS(=O)(=O)O)cc2)c2ccccn2)cc1	-13
O=C(c1cccc(N2C(=O)C3CC=CCC3C2=O)c1)N1CCCCCC1 (stereo not drawn)	-9
CC1COc2c(F)c(F)cc3c(=O)c(C(=O)O)cn1c23 (stereo not drawn)	-11
Cc1nccnc1N1CCCCC1	-67
Cc1ccc(-n2cc(-c3nc4c(cnn4Cc4cccnc4)[nH]3)cn2)cc1	-3&-3
Cc1ccc(NC(=O)C(C)C)c(C(=O)c2ccccc2)c1	-1
CC(C(=O)O)N1C(=O)/C(=C\c2ccco2)SC1=S (stereo not drawn)	-62
O=C1N[C@H](CO)C(=O)N2CCN(C(=O)c3ccc(F)cc3)C[C@H]12	6
CC(=O)OCC(=O)[C@@]12N=C(C)O[C@@H]1CC1C3CCC4=CC(=O)C=C[C@]4(C)C3[C@@H](O)C[C@@]12C (stereo partly drawn)	-75
CCCCC[C@H](O)/C=C/[C@@H]1[C@@H](C/C=C\CCCC(=O)NCCO)[C@@H](O)C[C@H]1O	-9&-9
O=C(CSc1nnc2sc3ccccc3n12)N1CCOCC1	-16
CCN(CC)c1nc(-c2ccccc2)nc(-c2ccccc2)c1C#N	-4
Clc1ccc(Sc2cn[nH]c2-c2ccc3c(c2)OCCO3)cc1	8
CC12CCC(C(=O)O)(CC1O)C2(C)C (stereo not drawn)	-19
COc1ccc(OC)c(NS(=O)(=O)c2cccs2)c1	-7
CCCCCC(=O)CC[C@H]1[C@H](O)CC(=O)[C@@H]1C/C=C\CCCC(=O)O	-25&-25
c1cnn(-c2ccc(-c3cnco3)cc2)c1	-7
CCOc1ccc(NC(=O)CSc2ncnc3ccccc23)cc1	-10
Cc1nc(-c2ccnc(N)n2)cn1Cc1c(Cl)cccc1Cl	-24
CCN1CCc2c(OCC(=O)Nc3ccccc3)cccc2C1=O	-19
O=c1c(-c2ccccc2Cl)cc2c(n1Cc1ccncc1)CCN(Cc1ccnc3ccccc13)C2	-18

Individual results from above:
HCMV UL50-53 inh result of `CCN1CCc2c(OCC(=O)Nc3ccccc3)cccc2C1=O` reads -19
HCMV UL50-53 inh result of `Clc1ccc(Sc2cn[nH]c2-c2ccc3c(c2)OCCO3)cc1` reads 8
HCMV UL50-53 inh result of `c1cnn(-c2ccc(-c3cnco3)cc2)c1` reads -7
HCMV UL50-53 inh result of `COC(=O)CN1CCN(c2ncnc3sccc23)C(C)C1=O` (stereo not drawn) reads 40&40
HCMV UL50-53 inh result of `CC(C(=O)O)N1C(=O)/C(=C\c2ccco2)SC1=S` (stereo not drawn) reads -62
HCMV UL50-53 inh result of `Cc1nc(-c2ccnc(N)n2)cn1Cc1c(Cl)cccc1Cl` reads -24

(further entries)
SMILES	HCMV UL50-53 inh
O=C(CC(NCCc1ccccc1)C(=O)O)Nc1ccc(Cl)cc1 (stereo not drawn)	0
O=C(O)c1cccc(N2C(=O)/C(=C/c3ccccc3)SC2=S)c1	-5
CC(NC(=O)CCn1c(=O)oc2ccccc21)c1ccccc1 (stereo not drawn)	-6
CCN1C(=O)c2cccc3c(S(=O)(=O)NCC4CCCO4)ccc1c23 (stereo not drawn)	-38
CCCCC[C@H](O)/C=C/[C@H]1C2CC(CO2)[C@@H]1C/C=C\CCCC(=O)O (stereo partly drawn)	-4&-4
CCC(C)C1C(C#N)=C(N)Oc2n[nH]c(C)c21 (stereo not drawn)	6
CCCc1nc2ccccc2n1CC	-22
CCCCn1c(CCCNC(=O)c2cccs2)nc2ccccc21	4
O=C(CSc1nc2c(c(=O)n1-c1ccccc1)SCC2)c1ccccc1	-9
CCc1nc2sc3c(c2c2nncn12)CCC3	4
Cn1c(SCC(=O)NC2CCCC2)nnc1-c1c[nH]c2ccccc12	-21
O=[N+]([O-])c1cc2nc(O)c(O)nc2cc1[N+](=O)[O-]	-116
O=C1NC(=O)C(c2c[nH]c3ccccc23)=C1c1c[nH]c2ccccc12	-14&-12&-12
O=C(Cc1cccc2ccccc12)NCCCN1CCOCC1	-8
O=C(CS(=O)(=O)c1c[nH]c2ccccc12)Nc1ccccc1	-17
C=CCn1c(CNC(=O)Cc2ccccc2)nc2ccccc21	-8
[O-]/[N+](=C\c1cccc(Br)c1)c1ccccc1	-18
CSc1nc2ccc(NC(=O)c3cccc(Cl)c3)cc2s1	-26
COC(=O)C(C)Oc1cc(C)cc2oc(=O)cc(-c3ccccc3)c12 (stereo not drawn)	20
CCCn1c(CCNC(=O)c2ccccc2)nc2ccccc21	0
Cc1cc2ccccc2n1CCNC(=O)C1CC1	7
CCC(CC)(CCC#N)CNC1COC2(CCCC2)C1 (stereo not drawn)	-24
CC(=O)N[C@@H]1[C@@H](O[C@H](C)C(=O)O)[C@H](O)[C@@H](CO)O[C@@H]1O	-13
CN(C)C1C(=O)C(C(N)=O)=C(O)[C@@]2(O)C(=O)C3=C(O)c4c(O)ccc(Cl)c4C(O)[C@H]3C[C@@H]12 (stereo partly drawn)	38
CC(=O)NC(=O)c1cc2ccccc2oc1=Nc1ccccc1	-27

In the list so far, these contain a CF3 group.
SMILES	HCMV UL50-53 inh
N#CC1=C(SCC(N)=O)NC(O)(C(F)(F)F)C(C(=O)c2cccs2)C1c1ccccc1Cl (stereo not drawn)	0
ONc1cccnc1-n1nc(C(F)(F)F)cc1C(F)(F)F	-22
FC(F)(F)Oc1ccc(N=Cc2c(Cl)nc3sccn23)cc1	1
COc1ccc2cc(CCNC(=O)c3cccc(C(F)(F)F)c3)c(=O)[nH]c2c1	-19

Next entries:
SMILES	HCMV UL50-53 inh
COC(=O)CSc1nc(-c2ccccc2)c(-c2ccccc2)o1	-6
CCN(CC)c1ncnc2c1cnn2-c1ccc(C)cc1C	3
CN1CCC(CN(C)Cc2ccc(-c3nc(-c4ccncc4)cc(=O)[nH]3)cc2)CC1	-33&-33
Cc1cc2cc(CNS(=O)(=O)N(C)C)ccc2n1C	-11
COc1ccc(NC(=O)CCCSc2nc3sc(C)c(C)c3c(=O)[nH]2)cc1	-2
C=C(C)[C@@H]1CC[C@]2(C(=O)O)CC[C@]3(C)[C@H](CC[C@@H]4[C@@]5(C)CC[C@H](O)C(C)(C)[C@@H]5CC[C@]43C)[C@@H]12	5&-16
COc1ccccc1NC1CCS(=O)(=O)C1 (stereo not drawn)	-6
FC(F)(F)Sc1nc2ccccc2[nH]1	-3
FC(F)c1nc2ccccc2n1-c1nc(N2CCOCC2)nc(N2CCOCC2)n1	-6&-11&-7&-12&-8&-2
O=C(c1cc2cc(O)ccc2[nH]1)c1cc2cc(O)ccc2[nH]1	-63
O=C(NCc1ccncc1)C12CC3CC(C1)CC(c1ccc(Cl)cc1)(C3)C2	10
O=C(O)CCC/C=C\C[C@H]1C(=O)C=C[C@@H]1CC[C@@H](O)CCc1ccccc1	-22&-22
Cc1ccc(OCC(=O)OC2CCS(=O)(=O)C2)cc1 (stereo not drawn)	-24
CCCCCCCC/C=C\CCCCCCCC(=O)OCC	-18&-18
O=C(CSc1ncccn1)c1ccccc1	-19
COc1cc(C=O)c([N+](=O)[O-])cc1OC	-68
Nc1ccc2cc3ccc(N)cc3nc2c1	-102&-102
Cc1oc2cc(O)ccc2c(=O)c1-c1ccc(F)cc1	-17
NS(=O)(=O)c1ccc2nc(NC(=O)c3ccc(Br)cc3F)sc2c1	0
Cc1cc(C(=O)SCc2ccccc2)nn1Cc1c(Cl)cccc1Cl	-10
CCOC(=O)C1=C(c2ccccc2)OC(N)=C(C#N)C1C(C)C (stereo not drawn)	-18
CCn1c(CNC(=O)c2ccc(OC)c(OC)c2)nc2ccccc21	6
C=C(C)CSc1nnc2c(n1)[nH]c1ccccc12	1
Cc1ccc(S(=O)(=O)N2CCN(Cc3cc(-c4ccccc4)ccc3O)CC2)cc1	-19
C=CCn1nc(C(=O)N2CCCCCC2)c2c1CCC(NCc1cc(-c3ccccc3)on1)C2 (stereo not drawn)	-8

Molecules shown so far that have bromine:
SMILES	HCMV UL50-53 inh
Cc1ccc([N+](=O)[O-])cc1S(=O)(=O)N(C)/N=C/c1cnc2ccc(Br)cn12	-48
[O-]/[N+](=C\c1cccc(Br)c1)c1ccccc1	-18
NS(=O)(=O)c1ccc2nc(NC(=O)c3ccc(Br)cc3F)sc2c1	0

Sorted by formula weight (falling): 5 of the compounds above
SMILES	HCMV UL50-53 inh
CCn1c(CNC(=O)c2ccc(OC)c(OC)c2)nc2ccccc21	6
COC(=O)CSc1nc(-c2ccccc2)c(-c2ccccc2)o1	-6
CCOC(=O)C1=C(c2ccccc2)OC(N)=C(C#N)C1C(C)C (stereo not drawn)	-18
Cc1ccc(OCC(=O)OC2CCS(=O)(=O)C2)cc1 (stereo not drawn)	-24
Cc1cc2cc(CNS(=O)(=O)N(C)C)ccc2n1C	-11

(more compounds)
SMILES	HCMV UL50-53 inh
CC(c1cccc(O)c1)N(C)C (stereo not drawn)	-17
CCCC(CCC)C(=O)N1CCC(n2cc(C3CC3)nn2)CC1	-15
C=CCN1CCN(c2nc3ccccc3nc2C#N)CC1	-84
CC12C(=O)N(Cc3ccccc3)C(=O)C1C1C=CC2C1 (stereo not drawn)	-6
FC(F)(F)c1cccc(Nc2ncn[nH]2)c1	-9
COc1ccc(NC(=O)c2ccc(S(=O)(=O)N3CCCC3)cc2)cc1	4

High-throughput results deposited in PubChem BioAssay by ICCB-Longwood Screening Facility, Harvard Medical School.

The list is partial (hit frequency here may not be typical).
